VACV Venus inh: qHTS for Stage-Specific Inhibitors of Vaccinia Orthopoxvirus: Venus Reporter Primary qHTS; Vaccinia virus Venus reporter expression, fluorescence; Potency, µM (titrated, usually from 36.5 µM), inactives show at the highest dose activity change, negative = inhibition, usual class: inhibitors; 330,000 compounds, 0.46% hits; AID 720580, 2013; active means well fitted inhibition curve with a large enough effect; inconclusive means small, poorly fitted or top-dose-only effect; inactive means no such curve, though single readings can be large or run the other way; tested in A549 cells; further: nearly all actives have a fitted effect of over 30% in size; inactives centre near -10
Vaccinia mCherry: qHTS for Stage-Specific Inhibitors of Vaccinia Orthopoxvirus: mCherry Reporter Primary qHTS; Vaccinia virus mCherry reporter infection, fluorescence; about a quarter of the inactives have no number; Potency, µM (doses to about 36.5 µM), for inactives: at the highest dose activity change, negative = inhibition, actives largely listed as inhibitors; 310,000 compounds, 0.63% hits; AID 720579, 2013; active = well fitted inhibition curve with a large enough effect; inconclusive = small, poorly fitted or top-dose-only effect; inactive = no such curve, though single readings can be large or run the other way; tested in A549 cells; further: nearly all actives have a fitted effect of over 35% in size; inactives centre near -10
Active calls of the source: *; i = inactive; ? = inconclusive; · = not tested or not shown; & = joins results of further samples; [ ] = dose if it differs, or a comment. On the % scale 0 is the no-effect control and ±100 the full control effect; potency means the concentration at half of the fitted maximal effect.

The line under a structure holds: VACV Venus inh, Vaccinia mCherry
> c1ccc(CN2CCC3(CCCc4ccccc43)CC2)cc1
→ -28%, -14%
> COc1ccc(Br)cc1CNC(=O)CN1C(=O)CSc2ccc(S(=O)(=O)N3CCOCC3)cc21
→ -12%, -3%
> CCN(CC)c1ccc(N2C(=O)/C(=C\c3cccs3)SC2=S)cc1
→ -2%, ·
> CC(=O)OCc1cnc(C)c2oc(=O)c(C(=O)Nc3ccc(F)cc3C)cc12
→ 5%, -6%
> COc1ccc(CN2C(=NC(=O)C3CCCO3)SC3CS(=O)(=O)CC32)cc1 (centres undefined)
→ -10%, -14%
> CC1CCN(C(=O)CCc2nnc3ccc(NCCCN4CCCC4=O)nn23)CC1
→ -8%, -19%
> Cc1ccc(C(=O)OCC(=O)Nc2ccc3c(c2)OCCO3)cc1C
→ -13%, i
> COc1cc2occc2c2oc(=O)ccc12
→ 0%&3%, -14%
> O=C(CN1CCN(S(=O)(=O)c2ccc(F)cc2)CC1)Nc1ccnn1C1CCCC1
→ -18%, i
> COc1cncc(-c2cnc3sc(NCCc4ccccn4)nn23)c1
→ ?, -27%
> Cc1cccc(OCC(O)CN2C(C)(C)CC(O)CC2(C)C)c1 (centres undefined)
→ -15%, -20%
> CCOC(=O)c1ccc2c(c1)nc(SCC(=O)N1CCCCC1)n2CC
→ -14%, ·
> COc1ccc(NC(=S)Nc2ccccc2C(F)(F)F)cc1
→ -11%, -1%
> CC1CN(C(=O)COC(=O)c2cnc(Cl)c(Cl)c2)CC(C)O1 (centres undefined)
→ -15%, i
> O=C(c1cc(-c2ccc(Cl)cc2)n(-c2ccc(Cl)cc2Cl)n1)N1CCOCC1
→ -12%, ·
> Cc1ccc(/C=N/NC(=S)NC2CCS(=O)(=O)C2)cc1 (centres undefined)
→ -14%, -3%
> CCC(C)NC(=O)CN(c1ccc2c(c1)OCO2)S(=O)(=O)c1c(C)n[nH]c1C (centres undefined)
→ 4%, i
> COc1ccc(N2CCN(Cc3cc(=O)c(OCC(=O)Nc4ccccc4)co3)CC2)cc1
→ -15%, -20%
> O=C(CS(=O)(=O)c1ccccc1)Nc1nnc(-c2cccs2)o1
→ -11%, -25%
> Cc1ccc(S(=O)(=O)Oc2ccc(C)cc2/C=N/N=C2\NC(=O)C(C)S2)cc1 (centres undefined)
→ -19%, -11%
> Cc1ccc(S(=O)(=O)N2C[C@H]3C(=O)C[C@@H](c4ccccc4C)N(S(=O)(=O)c4ccc(C)cc4)[C@H]3C[C@H]2c2ccccc2)cc1
→ -13%, i
> c1cnc2c(c1)ccc1cccnc12
→ ?, 3.5µM*
> COCCN(C(=O)COC(=O)c1ccc(Br)o1)c1c(N)n(Cc2ccccc2)c(=O)[nH]c1=O
→ -8%, i
> COc1ccccc1-n1cnnc1SCC(=O)Nc1nc(C)c(Cl)cc1Cl
→ 2%, ·
> CCCCNC(=O)N(O)C1N(/N=C/c2ccccc2O)C(=S)SC1(C)C (centres undefined)
→ -11%, ?
> CCCCNC(=O)N1CCN(Cc2cccc(F)c2)CC1
→ -18%, -4%
> CCCCS(=O)(=O)N1CCCC(C(=O)Oc2ccccc2OC)C1 (centres undefined)
→ -15%, i
> CCC12CN3CCN(CC(C3)/C1=N\NC(=O)c1ccc(Cl)cc1)C2
→ -5%, 5%
> COc1ccc(OC)c2sc(NC(=O)c3ccc(S(=O)(=O)N(C)C)cc3)nc12
→ -7%, i
> N=C(N)SCc1ccc(O)c([N+](=O)[O-])c1
→ 0%, i
> Cc1ccc(S(=O)(=O)NCCC(=O)Nc2cccc(S(=O)(=O)N3CCCC3)c2)cc1C
→ -15%, -15%
> O=C(c1csc2c1CCCC2)N1CCN(c2ccccc2)CC1
→ -9%, i
> COc1ccccc1N1CCN(CCS(=O)(=O)c2cc(Cl)ccc2Cl)CC1
→ ?, 8.9µM*
> C#CCn1c(=NC(=O)c2ccc(Cl)s2)sc2cccc(OC)c21
→ -22%, -19%
> CC(NC(=O)C1CCCN(S(=O)(=O)c2cnc[nH]2)C1)c1ccccc1 (centres undefined)
→ -15%, 5%
> CCCCc1nn2c(C)c(-c3ccc(OCC)cc3)nc2s1
→ -7%, -13%
> COc1ccc(-c2noc(N3CCC(C(=O)NC(C)c4ccccc4)CC3)n2)cc1 (centres undefined)
→ -14%, i
> COc1cccc(CNC(=O)COC(=O)C2CC3CCCC(C2)C3=O)c1 (centres undefined)
→ -11%, i
> COC(=O)c1ccccc1NC(=O)Nc1cc(C)cc(C)n1
→ -2%, i
> O=C(c1ccccc1)N(c1ccccc1)C1C=CS(=O)(=O)C1 (centres undefined)
→ 0%, -7%
> O=C(/C=C/c1ccco1)Nc1ccccn1
→ -20%, -30%
> COc1ccccc1OCCNC(=O)CCNS(=O)(=O)c1ccc(C)cc1
→ -20%, i
> COCCn1nnnc1C(c1cccs1)N1CCN(c2nc3ccccc3s2)CC1 (centres undefined)
→ -9%, ?
> Cc1ccc(CNC(=O)/C=C/c2c(Cl)cccc2Cl)cc1
→ -18%, i
> Cc1cccc(C(=O)Nc2sc3c(c2C(=O)N2CCCCC2)CCC(C)C3)c1 (centres undefined)
→ -11%, -14%
> O=C(COc1ccccc1)Nc1cccc(S(=O)(=O)N2CCCC2)c1
→ -15%, i
> CCN(Cc1ccc(Cl)s1)C(=O)c1cccc(OCc2c(C)noc2C)c1
→ -21%, -12%
> COc1ccc(N2CCN(C(=O)c3ccc(F)cc3)CC2)c([N+](=O)[O-])c1
→ ?, ?
> COc1cc(S(=O)(=O)N2CCCCC2)ccc1NC=O
→ -8%, -9%
> CSc1ccc(-c2cc3c(c4c2ccn4C)C2CCC3O2)cc1 (centres undefined)
→ -9%, i
> CCOc1ccc(C2C(C(=O)Nc3ccc(C)cc3C)=C(C)Nc3c(C(=O)Nc4ccc(C)cc4)cnn32)cc1OC (centres undefined)
→ -9%, i
> OCC[C@H]1C[C@H](O)[C@@H](O)[C@@]2(OCc3ccccc32)O1
→ 3%, -18%
> COC(=O)c1cc(C)sc1NC(=S)N1CCN(CCc2ccccc2)CC1
→ 13%, -2%
> COc1ccc(/C(O)=C/c2nc3ccc(C(=O)NCCc4cccc(C)c4)cc3[nH]c2=O)cc1OC
→ 9%, -4%
> Cc1cccc(C)c1NC(=O)C(c1cccc([N+](=O)[O-])c1)N(C)C(=O)c1ccccn1 (centres undefined)
→ -9%, -11%
> CCCC[C@@H]1C=C(C(=O)O)[C@H](c2ccc3c(c2)OCO3)N1S(=O)(=O)c1ccc(C)cc1
→ -9%, i
> COc1ccc(C(=O)Nc2nc(C)c3cc4c(cc3n2)OCO4)cc1
→ -2%, -7%
> CC(C)c1c(C(=O)N/N=C/c2cccnc2)nnn1-c1nonc1N
→ -10%, i
> COC(=O)/C(C#N)=C(/Nc1ccc(F)c(Cl)c1)C(F)(F)F
→ -4%[7.34 µM], 0%[7.34 µM]
> Cc1sc(NC(=O)c2ccc3ncsc3c2)c(C(N)=O)c1C
→ -15%, -4%

Further compounds:
Structure	VACV Venus inh	Vaccinia mCherry
O=C(NCc1ccccc1)C(=O)Nc1c2c(nn1-c1ccc(F)cc1)CSC2	-19%	-26%
CCC(NC(=O)c1cc(COc2ccc(C)nc2)on1)c1ccc(C)cc1 (centres undefined)	-29%	?
Cc1occc1C(=O)NNS(=O)(=O)c1ccc(Cl)cc1	-3%	-6%
COc1ccc(S(=O)(=O)N2CCOCC2)cc1NC(=O)c1ccc(OC(F)F)cc1	-20%	-20%
C=CCn1c(=O)/c(=C/c2ccc(F)cc2)s/c1=C(\C#N)c1nnc2n1CCCCC2	0%	i
CC1(C(=O)Nc2ccc3c(c2)OCO3)CCN1C(=O)C1CCCCC1 (centres undefined)	-1%	i
COc1ccccc1-c1ocnc1C(=O)Nc1ccc(N2CCOCC2)cc1N1CCOCC1	-14%	-23%
Cc1ccc(C)c(N(CC(=O)NC2CCCC2)C(=O)CCC(=O)Nc2nccs2)c1	-5%	55%[activator]
CSc1ccc(CN2CCN(CC=C(C)C)C(CCO)C2)cc1 (centres undefined)	-10%	-13%
O=C(Cc1ccccc1F)NNC(=O)c1cccs1	-2%	-8%
COc1ccc(CC2(CO)CCN(Cc3ccncc3)CC2)cc1	5%	-1%
N[C@@H](Cc1ccc(N(CCCl)CCCl)cc1)C(=O)O	-18%	-2%
CCOC(=O)C1CCN(C(=O)c2ccc3c(=O)n4c(nc3c2)CCCCC4)CC1	-5%	-7%
O=C(CP(=O)(c1ccccc1)c1ccccc1)Nc1nc2ccc(Cl)cc2s1	-20%	-14%
CCCC(=O)NC(=S)Nc1ccccc1N1CCOCC1	-18%	-1%
CNC(=O)C[C@H]1C(=O)N(Cc2ccccc2)C[C@@H]1CSC	-15%	-2%
CC(C(=O)Nc1ccc(F)c(F)c1F)N(C)CC(=O)Nc1ccccc1Br (centres undefined)	-12%	-2%
C=CCn1c(COc2cccc(C)c2C)nnc1SCC(=O)N1CCN(c2ccccc2)CC1	?	?
COc1ccc(CCC(=O)N2c3ccccc3N=C(c3ccc(C(F)(F)F)cc3)C2C(=O)NC2CCCC2)cc1 (centres undefined)	-22%	-6%
COc1ccc(-c2noc(-c3ccccc3OCC(=O)Nc3ccc(C(C)=O)cc3)n2)cc1	-9%	-10%
O=S(=O)(Nc1cccc(-c2ccc3nncn3n2)c1)c1ccc(Cl)s1	-12%	-5%
CC(C)(C)c1ccccc1OCCOCCNCc1ccccc1	?	-21%
CS(=O)(=O)N1CCN(c2ccccc2NC(=S)NC(=O)c2cccs2)CC1	0%	-11%
Cc1cc(=O)oc2cc(NC(=O)CCCC(=O)O)ccc12	-10%	-19%
Cc1ccc(Oc2ncccc2NC(=O)CC(CC(=O)O)c2ccccc2)c2c1CCC2 (centres undefined)	-4%	i

An excerpt of these results, field by field:
O=C(CP(=O)(c1ccccc1)c1ccccc1)Nc1nc2ccc(Cl)cc2s1
  VACV Venus inh: -20%
  Vaccinia mCherry: -14%
CC1(C(=O)Nc2ccc3c(c2)OCO3)CCN1C(=O)C1CCCCC1 (centres undefined)
  VACV Venus inh: -1%
  Vaccinia mCherry: i

5 entries drawn at random from the list so far, as already listed:
Structure	VACV Venus inh	Vaccinia mCherry
CC1CN(C(=O)COC(=O)c2cnc(Cl)c(Cl)c2)CC(C)O1 (centres undefined)	-15%	i
COc1cccc(CNC(=O)COC(=O)C2CC3CCCC(C2)C3=O)c1 (centres undefined)	-11%	i
N[C@@H](Cc1ccc(N(CCCl)CCCl)cc1)C(=O)O	-18%	-2%
COc1ccc(Br)cc1CNC(=O)CN1C(=O)CSc2ccc(S(=O)(=O)N3CCOCC3)cc21	-12%	-3%
Cc1ccc(S(=O)(=O)Oc2ccc(C)cc2/C=N/N=C2\NC(=O)C(C)S2)cc1 (centres undefined)	-19%	-11%

Other results follow:
Structure	VACV Venus inh	Vaccinia mCherry
COc1ccc(NC(=O)N(C)C[C@H]2OCc3cnnn3CCCC(=O)N([C@H](C)CO)C[C@@H]2C)cc1	-20%	i
C/C(Cl)=C/Cn1c(SCc2ccc(Cl)cc2)nc2c1c(=O)[nH]c(=O)n2C	-13%	·
Nc1ccc2c(c1)C(=O)N(CCCCCC(=O)O)C2	-15%	-24%
COc1ccc(NC(=O)Cc2coc3cc(C)ccc23)cc1S(=O)(=O)N1CCOCC1	-11%	-19%
COCCSc1ccccc1C(=O)Nc1ccc(Cl)cn1	-3%	-13%
CCOC(=O)N1CCN(CC(=O)Nc2cc(C)nn2-c2nc3ccccc3s2)CC1	0%	i
COc1ccc(N2CCN(C(=O)CCS(=O)(=O)c3cc4c(cc3Cl)NC(=O)CO4)CC2)cc1	-2%	-9%
CC(C)(CSc1nncn1/N=C/c1ccco1)NS(=O)(=O)c1ccc(Cl)cc1	-20%	·
OC(COc1ccc(CNCc2cccnc2)cc1)CN1CCc2ccccc2C1 (centres undefined)	-10%	-14%
Cc1cc(NC(=O)c2ccc(N3C(=O)CCC3=O)cc2)no1	2%	-6%
CC(C(=O)NC(C)(C)C)n1c(C(c2ccccc2)c2ccccc2)nc2ccccc21 (centres undefined)	-27%	-30%
Cc1cc2nc(-c3ccco3)c(Cc3cccc(Cl)c3)n2c(C)c1Br	12%	6%
COc1ccc(CCNC(=S)Nc2ccccc2C)cc1	-25%	·
Cc1ccc(S(=O)(=O)NCCSc2nnnn2-c2ccc(C(N)=O)cc2)cc1	-10%	-14%
CN(C)NC(=O)C12CCC(C)(C(=O)O1)C2(C)C (centres undefined)	-10%	i
C=CCn1c(SCC(=O)Nc2ccc(C(=O)OC(C)C)cc2)nnc1-c1cccs1	-19%	-11%
COc1cc2nc(CN3CC=C(c4ccccc4)CC3)[nH]c(=O)c2cc1OC	?	5.6µM*
Cc1cccc(-n2c(C)c(C)c3c(N)ncnc32)c1	-8%	?
O=C(COc1ccc(Br)cc1CNC1CCCC1)Nc1ccccc1	-21%	-10%
CC(=O)Nc1cc(C(=O)N2CCN(c3ccccc3)CC2C)cc2ncn(CCc3ccccn3)c12 (centres undefined)	9%	2%
CCCNC(=O)C1(C)CCCN(CC(=O)c2ccc3c(c2)OCCO3)C1 (centres undefined)	3%	21%
CS(=O)(=O)Nc1ccccc1C(=O)NCCSCc1ccccc1	-5%	-10%
O=C(C1CCCN(S(=O)(=O)c2ccc(Br)s2)C1)N1CCN(c2ccc(F)cc2)CC1 (centres undefined)	-28%	?
CC(C)CN1CCN(Cc2cccn2-c2ccc(Cl)cn2)CC1CCO (centres undefined)	-7%	-11%
O=C(Nc1c2c(nn1-c1ccc(F)cc1)CS(=O)C2)c1ccc(Br)o1 (centres undefined)	2%	-20%

High-throughput results (PubChem BioAssay)
